# CBX7 AlphaScr: CBX7 chromodomain binding inhibitors, primary screen, biochemical, AlphaScreen; Chromobox protein homolog 7 (Homo sapiens), O95931; AlphaScreen His6-CBX7 / biotin-H3K27me3 peptide binding; active compounds read low; normalised signal (fraction of DMSO) (concentration not given with the values); hit rate 1.1% among 66,000; in the data active means normalised signal below about 0.5;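 further: 100 nL library stock added to about 20 µL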
# Target sequence (O95931 whole entry, looked up): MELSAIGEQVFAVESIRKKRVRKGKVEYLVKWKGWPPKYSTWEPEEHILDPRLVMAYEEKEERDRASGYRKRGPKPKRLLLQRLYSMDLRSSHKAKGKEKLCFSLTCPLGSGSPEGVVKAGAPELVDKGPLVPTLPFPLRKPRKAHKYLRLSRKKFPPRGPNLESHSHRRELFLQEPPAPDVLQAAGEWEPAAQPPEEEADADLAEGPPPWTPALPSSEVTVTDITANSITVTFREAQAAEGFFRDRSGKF
# CBX7 AlphaScr z-score: second read-out of CBX7 AlphaScr, no call of its own (marks repeat the call); z-score; measured here: z-score of CBX7 signal; some inactives read as strong as hits; reference of the scale not given here;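 same signal on another scale; lower means less binding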
# An asterisk follows results filed as active; & = joins results of further samples.
structure,CBX7 AlphaScr,CBX7 AlphaScr z-score
Cc1cc(C(=O)NC(C)c2ccccc2)n(-c2ccccc2)n1 (configuration not stated),0.972,-0.717
O=C(Nc1c(-c2cccs2)nc2ccccn12)c1ccc(Cl)cc1,0.937,-1.69
Cc1cccc2nc(-c3ccccn3)c(Nc3ccccc3)n12,0.00532*,-21.5*
Cc1nc2ncnn2c(C)c1CCC(=O)N1CCC(Cc2ccccc2)CC1,0.993,-0.142
COc1ccc(OCC(=O)Nc2cc(-c3nc4ccccc4s3)ccc2C)cc1,1.02,0.788
COc1ccc(-c2nc3ccc(Cl)cn3c2Nc2ccc3c(c2)OCCO3)cc1,0.866,-2.19
Nc1c2c(nc3ccccc13)CCCC2O (configuration not stated),0.918,-1.13
CCN1C(=O)c2ccccc2S(=O)(=O)c2ccc(C(=O)N3CCN(c4ccccn4)CC3)cc21,1.02,0.503
COc1ccccc1Nc1nc(-c2ccc(C)cc2)c(C)s1,0.789&0.983,-5.26&-0.643

# Source: PubChem

# Only part of the results is shown (hit frequency here may not be typical).
